Assay outcomes as filed in PubChem BioAssay.
NPYLR7 ag = agonists of mosquito NPYLR7 receptor, primary screen, cell-based, Aedes aegypti, calcium fluorescence, mosquito biting behavior | Aedes aegypti neuropeptide Y-like receptor 7 (NPYLR7) | HEK293T NPYLR7/Galpha15, GCaMP6s calcium fluorescence | activation, % at 10 µM | 270,000 compounds, 0.15% hits | AID 1259423, 2018; in the data active = activation above about 40%;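 note: 0% = vehicle and 100% = reference agonist at the receptor; some compounds past the cut are filed as inactive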
NPYLR7 ag max-min = further read-out of NPYLR7 ag, marked with its call; activation, %; measured here: Max-Min RFU normalised activation; some inactives read as strong as hits;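 span of the calcium signal over five minutes; 0% = vehicle and 100% = native peptide agonist; compound fluorescence can raise it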
Numbers without * were called inactive; & = joins results of further samples.

Preview (4 entries):
Structure | NPYLR7 ag | NPYLR7 ag max-min
Cc1c(Cl)cccc1NC(=O)CC(=O)N1CCCCC1c1cccnc1 (configuration not stated) | 4.3 | -2.8
Cc1nnc(-c2cccc(C#N)c2)n1C(C)c1ncc(C(C)(C)C)o1 (configuration not stated) | -0.2 | -1.6
c1cncc(C2Oc3ccccc3C3CC(c4cccs4)=NN32)c1 (configuration not stated) | 1.1 | -1.0
COc1cc([N+](=O)[O-])ccc1NC(=O)C(C)OC(=O)c1cccs1 (configuration not stated) | 5.0 | 0.2

The whole of this part, from the first entry:
Structure | NPYLR7 ag | NPYLR7 ag max-min
Cc1c(Cl)cccc1NC(=O)CC(=O)N1CCCCC1c1cccnc1 (configuration not stated) | 4.3 | -2.8
Cc1nnc(-c2cccc(C#N)c2)n1C(C)c1ncc(C(C)(C)C)o1 (configuration not stated) | -0.2 | -1.6
c1cncc(C2Oc3ccccc3C3CC(c4cccs4)=NN32)c1 (configuration not stated) | 1.1 | -1.0
COc1cc([N+](=O)[O-])ccc1NC(=O)C(C)OC(=O)c1cccs1 (configuration not stated) | 5.0 | 0.2
COCCN1CCCC2(CCN(C(=O)c3nccc4ccccc34)C2)C1 (configuration not stated) | 8.3 | 4.1
C[C@@]12CO[C@H](c3ccccc3)C[C@@H]1C[C@H](N1CCN(Cc3cccc(C#N)c3)CC1)C2 | -0.6 | 9.8
CCc1ccc(S(=O)(=O)Nc2ccc3c(c2)C(=O)Nc2ccccc2O3)s1 | 10.3 | 6.9
Cc1ccn2c(NC(C)(C)CC(C)(C)C)c(-c3ccc(Cl)cc3)nc2c1 | 8.7 | 13.0
C=CCN(CC(=O)N1CCc2sccc2C1COc1cccc(OC)c1)C(=O)c1cccs1 (configuration not stated) | -4.1 | -3.3
CN1CCN(C(CNS(=O)(=O)C2=Cc3ccccc3CC2)c2cccs2)CC1 (configuration not stated) | 4.5 | 4.1
CN(Cc1ccc(N2CCOCC2)cc1)C(=O)C1Cc2ccccc2O1 (configuration not stated) | 3.8 | -2.6
CCOC(=O)c1c(-c2ccccc2)oc2cc(Br)c(OC)cc12 | 1.0 | -5.8
O=C(NC1(C(F)(F)F)NC(=O)N(C2CCCCC2)C1=O)c1ccncc1 (configuration not stated) | 14.7 | 13.4
Brc1ccc(C2=Nc3nnnn3C(c3ccc(Br)cc3)C2)cc1 (configuration not stated) | -0.3 | -1.6
CCCCOc1ccc(C(=O)Nc2c3c(nn2C(C)(C)C)CSC3)cc1 | -1.7 | -3.5
O=C(CC1CCCCC1)NCCNC(=O)N1CCSCC1 | 5.3 | 12.8
O=C1COCc2cc(-c3cccnc3)ccc2N1Cc1ccccc1 | 4.2 | 1.0
COc1ccc(OC)c(C2CCN(Cc3nnc(-c4ccc(C)n4C)o3)C2)c1 (configuration not stated) | 3.6 | -1.4
CS(=O)(=O)Oc1ccc(CN(Cc2ccco2)C(=O)Nc2ccc(Br)cc2)cc1 | 0.6 | -0.2
O=c1cc(CSc2nnc3n2CCCCC3)c2c(ccc3ccccc32)o1 | -6.6 | -5.8
CC1(C)CC(=O)C(C2(O)C(=O)Nc3ccccc32)CO1 (configuration not stated) | -1.5 | -2.3
COc1ccc2c(c1)-c1sc(C(=O)NCCC#N)cc1CC2 | 0.4 | -1.4
CN(C)C(=O)CSc1nnc(-c2ccccc2F)n1C1CCCCC1 | -0.1 | -2.3
O=C(c1ccco1)N1CCCC(OCc2ccc(OC(F)(F)F)cc2)C1 (configuration not stated) | -2.4 | 1.7
O=C(Nc1ccc(F)cc1)Nc1cccc(S(=O)(=O)NCc2ccco2)c1 | 0.8 | 11.9
Cc1ccc(CNC(=O)C(C)Sc2nc3sccc3c(=O)[nH]2)cc1 (configuration not stated) | 4.7 | -0.2
CC1(C(=O)Nc2ccc3c(c2)OCO3)CCN1Cc1ccc(-c2ccccc2)o1 (configuration not stated) | 8.9 | 3.6
CC1=CC[C@@H]2CN(C(=O)Cc3ccc(S(C)(=O)=O)cc3)C[C@@H]2C1 | 0.6 | -1.8
Cc1ccc(Cc2nc(N3CCN(S(C)(=O)=O)CC3)c3c(C)nn(-c4ccc(F)cc4)c3n2)cc1 | -6.6 | -1.9
CCC(C)N(CC(=O)N1CCc2sccc2C1c1ccc(OC)cc1)S(=O)(=O)c1ccc(F)cc1 (configuration not stated) | 10.8 | 11.1
CCc1ccc(Oc2c(C)oc3cc(OC(C)=O)ccc3c2=O)cc1 | -4.9 | -4.6
O=C(NCCS(=O)(=O)N1CCCC1)c1cccc2ccnn12 | 2.4 | 2.7
O=C(c1ccccc1C(F)(F)F)N1CCC(c2nc(-c3ccc(C(F)(F)F)cc3)no2)CC1 | -4.8 | -6.6
Cc1nonc1NC(=O)c1ccc(C(C)(C)C)cc1 | -16.4 | -18.8
O=C(CSc1nc2ccccc2[nH]1)N/N=C\c1ccccc1O | 0.0 | 6.2
COc1ccc(-n2cccn2)c(CN2CCCCC2c2ccccn2)c1 (configuration not stated) | 2.1 | 1.9
CC(C)(C)NC(=O)N1CCN(C(C(=O)N2CCSCC2)C2CCCC2)CC1 (configuration not stated) | 1.8 | 15.7
C=CCOc1ccccc1/C=C1/NC(=S)NC1=O | -0.7 | 6.6
O=C(CN1CCC(c2ccccc2)C1)N1CCC2(CCCO2)CC1 (configuration not stated) | 2.7 | 1.9
CN1CCN(C(=O)c2cc3cc(Cl)ccc3[nH]2)CC1 | 0.7 | -2.0
COc1ccc(CC2(CO)CCN(Cc3nc(C(C)C)cs3)CC2)cc1 | 2.9 | 5.7
N#Cc1cccc(-c2nnc(CNc3ccc(C(F)(F)F)cc3)o2)c1 | 1.7 | 1.0
CN(CC(=O)c1ccc(O)cc1)Cc1ccc(CO)o1 | 5.5 | 1.5
CCOc1ccccc1CNC(=O)c1ccc(-c2cc(-c3cccc(C(F)(F)F)c3)n[nH]2)cc1 | -1.7 | 8.0
NC(=O)c1ccc(NC(=O)CC2(C(=O)O)Cc3ccccc3C2)cc1 | 4.9 | 3.8
O=C(NCc1cccs1)c1cncn1-c1cccc(-c2ccc(Oc3ccccc3)cc2)c1 | 4.2 | 3.6
CCOC(=O)C1CCCCN1CC(=O)N1N=C(c2ccc(OC)cc2OC)CC1c1cc(OC)ccc1OC (configuration not stated) | 9.9 | 7.0
CCCC1Oc2ccccc2C(=O)N(CC(=O)c2ccc(OCC)cc2)C1=O (configuration not stated) | -4.0 | -5.9
O=C(O)CCN1C(=O)/C(=C/c2ccco2)SC1=S | -4.2 | -3.4
CN(Cc1ccc2c(c1)OCO2)C(=O)c1cccc(C#CC(C)(C)O)c1 | -4.0 | -4.1

(cont.)
Structure | NPYLR7 ag | NPYLR7 ag max-min
O=C(NN=Cc1c(F)c(F)c(F)c(F)c1F)C1CC1 | 0.2 | 3.6
CC(=O)Nc1ccc(CC2CCN(C(=O)COC(C)=O)CC2)cc1 | 19.3 | 12.4
Cc1noc(-c2ccco2)c1C(=O)NCc1ccsc1 | 4.9 | 8.4
COc1cccc(O)c1CN1CCN(C2CCCCC2)C(=O)C1 | -1.7 | -2.8
Cc1nc(C(C)N(C)C(=O)Nc2ccc3c(c2)OCO3)c(C)s1 (configuration not stated) | 10.2 | 6.8
Cn1ncc(C2CC(=O)Nc3cc(O)ccc32)c1C1CC1 (configuration not stated) | -2.6 | -3.2
COc1cccc(-c2nc(C=Nc3ccc(I)cc3)c(O)o2)c1 | 5.4 | -0.6
CCc1n[nH]c(=O)c(-c2nc(-c3cc(C)ccc3C)cs2)c1CC | 0.5 | 0.9
Cc1nn(CC(=O)c2c(N)n(CC(C)C)c(=O)n(C)c2=O)c(C)c1[N+](=O)[O-] | 6.8 | 11.3
COCCN(CC(=O)Nc1nc(CC(=O)NCc2ccc(F)cc2)cs1)C(=O)c1ccccc1 | -2.3 | 4.9
O=C(CSc1nc2c(c(=O)n1-c1ccc(F)cc1)SCC2)NCc1ccc(F)cc1 | -1.2 | 35.9
COc1cc(-c2n[nH]c(Cc3ccccc3)n2)nc(OC)n1 | 3.5 | 3.2
O=P1(c2ccccc2)C=Cn2c1cc1c2CCCC1 (configuration not stated) | -0.6&9.8 | -1.8&7.6
Cc1cnc(NC(=O)CCSc2ccccc2F)s1 | 0.0 | -1.7
Nc1cccc(-n2cnnn2)c1 | 5.6 | 8.0
C=C(C)COc1ccc(C(=O)NC(CC)c2cnn(C)c2)cc1 (configuration not stated) | 8.7 | 7.8
CN(C1CCCCC1)S(=O)(=O)N1CCN(c2cccc(F)c2C#N)CC1 | 6.1 | 3.5
CCN1Cc2cc(OC)ccc2N(CC(O)COc2ccccc2)CCC1=O (configuration not stated) | 0.6 | -4.8
CC1(C)CCC2=C(O1)c1ccccc1C(=O)C2=O | 0.3&4.3 | 1.4&-19.0
Cc1ccc(-c2nc3ccccn3c2NC(=O)COCc2ccccc2)cc1 | -4.6 | -3.7
CC(C)(C)NC(=O)C1CSCN1S(=O)(=O)c1ccccc1S(C)(=O)=O (configuration not stated) | 4.2 | 2.9
CCOC(=O)C1=C(C)N=c2s/c(=C/c3ccc(OC(C)=O)cc3)c(=O)n2C1c1ccccc1Cl (configuration not stated) | -3.8 | -9.6
COc1cc2c(cc1OC)C1(C)N(CC2)C(OC(C)=O)=NN1c1ccccc1 (configuration not stated) | -1.4 | -7.9
CCOC(=O)c1c(NC(=O)c2cc(S(N)(=O)=O)c(Cl)cc2Cl)sc(C(=O)N(CC)CC)c1C | 11.8 | 6.7
CC(C)CC(=O)Nc1c(-c2cccc(F)c2)nc2ccccn12 | -5.2 | 1.2
O=[N+]([O-])c1ccccc1NNC(=S)NC1CC2CCC1C2 (configuration not stated) | 3.8 | 2.6
CN(Cc1ccccc1)[C@@H]1C[C@@H]2CO[C@H](c3ccccc3)C[C@@H]2C1 | 1.0 | 4.9
CCC(=O)NCc1nc2c(cnn2-c2ccccc2)c(=O)[nH]1 | 6.9 | 1.3
Cc1ccc(OCC(=O)Nc2ccccc2Cl)cn1 | 15.2 | 6.0
CCCCCCC1(C)NC(=O)N(CC(=O)c2c(C)[nH]c(C)c2C(=O)OCC)C1=O (configuration not stated) | -2.4 | -2.9
O=C(NCCn1ncc2c(=O)n(Cc3cccc(F)c3)cnc21)c1cccs1 | -5.1 | -9.3
Cc1nc(NCCNC(=O)c2ccc(Br)o2)cc(-n2cccn2)n1 | -3.4 | -5.2
O=C1CC(c2n[nH]c(=O)n2-c2cccc3ccccc23)CN1Cc1ccccc1 (configuration not stated) | 0.7 | -1.4
CCOC(=O)C1C(=O)CC(O)(c2ccccc2)CC1C=C(Cl)Cl (configuration not stated) | -21.9 | -27.0
COc1ccc(C)c2sc(N(CCN(C)C)C(=O)c3ccc(Br)s3)nc12 | -1.7 | -8.1
Cn1cc(CN(C(=O)C2CCCN(Cc3ccco3)C2)C2CC2)cn1 (configuration not stated) | 3.4 | 2.2
Cc1cccc(C(=O)N(Cc2cc(NC(=O)C3CC3)ccc2N(C)C)C(C)c2ccccc2)c1 (configuration not stated) | 4.9&25.2 | 4.6&29.7
OC1(c2ccccc2)Cc2cccc[n+]2C1c1ccccc1 (configuration not stated) | -2.0 | 17.9
C[C@@]1(O)CCN(C(=O)CCCN2CCOCC2)C[C@@H]1Cc1ccccc1 | -2.2 | -2.7
CN(C)CCOc1cccc2c1Sc1ccccc1CC2O (configuration not stated) | -7.4 | -6.6
O=C(NN=Cc1cccc([N+](=O)[O-])c1)c1cccc(I)c1 | 3.3 | 2.6
CCOc1ccccc1-n1ccc2c(cnc3ncnn32)c1=O | 1.7 | 2.8
CCN(c1ccccc1C)S(=O)(=O)c1ccc(O)c(C(=O)O)c1 | 4.6 | 2.7
Cc1sc2nc(CN3CCCC3)nc(NC3CCCC3)c2c1C | 2.0 | 0.9
COc1ccc(-c2c(NC(=O)C(C)C)oc3c(C)cccc3c2=O)cc1 | 5.5 | 0.3
CCC(C(=O)N(CCOC)Cc1ccc(OS(=O)(=O)c2cccc(C(F)(F)F)c2)cc1)c1ccccc1 (configuration not stated) | 14.2 | 15.6
O=C1CCCCCN1CC(=O)N1CCn2cncc2C1 | 7.0 | -0.4
COCCCN(CC(=O)N1CCc2sccc2C1COc1ccc(Cl)cc1)C(=O)c1cccs1 (configuration not stated) | 11.4 | 7.2
CCc1ccc(S(=O)(=O)c2c(C(=O)N3CCC(C)CC3)cnc3ccc(F)cc23)cc1 | -1.6 | -4.8
O=C(c1ccccc1)N(CCN1CCOCC1)c1nc2c(F)cc(F)cc2s1 | 11.3 | 5.2

Continued:
Structure | NPYLR7 ag | NPYLR7 ag max-min
O=C(CSc1nnc(C2CC2)o1)c1ccc[nH]1 | -1.6 | -2.0
CCCc1[nH]nc2c1C(c1cc(Cl)cc(Cl)c1O)CC(=O)N2 (configuration not stated) | 5.6 | 3.9
O=C(NCCSCc1ccccc1)NCc1ccccc1CS(=O)(=O)N1CCOCC1 | 11.3 | 11.7
COc1ccc(CN2C3CCC2CC(NC(=O)c2cc(Cl)ccc2F)C3)c(OC)c1 (configuration not stated) | 1.6 | 7.4
CCS(=O)(=O)Oc1ccc(C)cc1-c1nc2ncccc2o1 | -0.3 | 5.5
COc1ccccc1Cn1c(C)c(C(=O)NCc2ccc(OC)c(OC)c2)sc1=O | 6.6 | 2.2
CCCCC(O)CN(Cc1ccco1)Cc1c(C)nn(-c2ccccc2)c1Oc1cccc(F)c1 (configuration not stated) | 24.3 | 28.4
S=c1[nH]c(-c2ccccc2)cn1N=Cc1ccncc1 | 0.4 | 6.4
CCCOC(=O)C1=C(C)NC2=C(C(=O)CC(c3ccc(Cl)cc3)C2)C1c1ccc(OCCC)cc1 (configuration not stated) | -6.4 | -7.3
Cc1nn(-c2nc(C)c(C)c(=O)[nH]2)c(C)c1CCC(=O)Nc1nccs1 | 8.8 | 0.1
O=C(CSc1nc(=O)n(CCCN2CCOCC2)c2c1CCC2)Nc1ccc(F)cc1F | -1.2 | -5.4
O[C@@H]1CN(Cc2cccn2-c2ccccn2)CC[C@H]1c1ccc2c(c1)OCO2 | -0.5 | -1.3
COc1ccc(C(C)C)cc1CN1CC[C@H](CO)[C@H](O)C1 | 10.1 | 10.0

An excerpt. The share of hits here may be higher or lower than overall.
